# PABP FP inh = PABP-poly(A) binding inhibition; actives 1% (n = 290,000); inhibition, % at 35 µM; PABP-poly(A) RNA binding, fluorescence polarization; P11940; AID 2014;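 active means 50% or more with normal probe brightness, or confirmed in later tests; about a fifth of its hits are not listed in these tables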;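 further: calls also rest on retests at 20 µM and on dose response follow-up; controls were probe without protein and protein plus probe with vehicle; some compounds called inactive have numbers as strong as hits; many hits fall short of the cut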
# Target sequence (P11940 whole entry, looked up): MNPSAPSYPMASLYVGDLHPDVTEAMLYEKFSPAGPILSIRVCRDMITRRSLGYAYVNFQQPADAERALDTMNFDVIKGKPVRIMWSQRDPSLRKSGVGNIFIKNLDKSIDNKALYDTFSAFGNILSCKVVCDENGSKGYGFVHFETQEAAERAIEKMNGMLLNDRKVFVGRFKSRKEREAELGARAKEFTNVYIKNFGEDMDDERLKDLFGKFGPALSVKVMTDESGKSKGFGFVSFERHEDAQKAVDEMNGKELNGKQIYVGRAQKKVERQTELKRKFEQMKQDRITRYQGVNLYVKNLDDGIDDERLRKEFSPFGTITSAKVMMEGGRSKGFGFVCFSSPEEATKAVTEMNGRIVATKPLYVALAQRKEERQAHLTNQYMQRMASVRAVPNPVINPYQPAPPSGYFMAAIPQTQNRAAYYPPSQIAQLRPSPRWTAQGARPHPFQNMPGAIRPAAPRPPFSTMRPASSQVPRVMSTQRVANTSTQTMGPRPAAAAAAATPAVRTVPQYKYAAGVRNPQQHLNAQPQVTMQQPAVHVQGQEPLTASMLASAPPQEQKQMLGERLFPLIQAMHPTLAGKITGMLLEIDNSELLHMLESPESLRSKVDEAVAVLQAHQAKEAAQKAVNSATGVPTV
# CSC inhib = blocks cancer stem cells. inhibition, % at 7.5 µM. cancer stem cell-like cells viability, luminescence. AID 2717. actives 1.1% (n = 300,000);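 active means mean at 75% or more and at least half the replicates too; tested in HMLE shEcad cells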;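 further: 0% = median of negative and 100% = median of positive control wells; the first replicate is given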
# eIF4H inh = inhibitors of RNA binding by human eIF4H | actives 0.94% (n = 290,000) | Q15056 | eIF4H fluorescence polarization binding assay | inhibition, % at 35 µM;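 active means 50% or more with normal probe brightness, or confirmed in later tests; about a fifth of its hits are not listed in these tables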;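 further: calls also rest on retests at 20 µM and on dose response follow-up; 0% = protein and probe with vehicle and 100% = probe without protein; strong numbers were not always called active; many hits fall short of the cut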
# UUG fidelity = yeast start codon fidelity modulation | S. cerevisiae UUG-firefly luciferase reporter, luminescence/redox ratio | actives 0.13% (n = 350,000) | activity score, % at 18.7 µM;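 active means replicate mean at a twofold rise or more, about +100% in these data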;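 further: firefly luciferase made from a UUG start codon reports start codon fidelity; reporter light over untreated wells divided by growth signal over untreated wells; some hits fall short of that in this replicate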
# Env fusion inh = inhibitors of HIV Env-mediated cell fusion; actives 1.1% (n = 360,000); AID 651610; HeLa-JRFL Env/CEM21 cell fusion, luciferase; inhibition, % at 12.3 µM;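 active means mean replicate inhibition score of at least 50 and every replicate individually at or above 50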;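 further: 0% = plate neutral controls and 100% = maraviroc near 300 nM; one replicate is shown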
# MT1-MMP act inh = blocks activation of human MT1-MMP; HT1080 RFP-PRO-GFP cells, GFP/RFP ratio fluorescence, overnight; percent of plate control window, DMSO zero; actives 0.061% (n = 360,000); P50281; GFP/RFP ratio change, % at 20 µM;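 active means GFP/RFP ratio change of at least 30% with cell ATP level not reduced by more than half and red fluorescence within 50% of control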; further: strong numbers were not always called active
#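 Test system: HT1080 RFP-PRO-GFP cells; Benchmarks: DMSO and RFP-L50D-GFP cell wells; Timing: cells overnight before dosing, compound overnight, 37 °C, 5% CO2; Compound: one 20 µM compound dose with 1% DMSO; Read-out: GFP/RFP fluorescence ratio.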
# Rce1 inhib = blocks yeast Ras-converting enzyme | Q03530 | yeast membranes, quenched prenylated peptide cleavage fluorescence | calls only | actives 0.27% (n = 290,000);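 active means fall in fluorescence gain of 50% or more versus controls, with final raw signal at or below 3038400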;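 further: plate controls were neutral control wells for no effect and wells lacking membranes for full effect; tested at 10 µM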
# MT1-MMP act inh RFP = recorded beside MT1-MMP act inh, whose call it bears; RFP signal change, %; measured here: RFP expression control read;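 0 = vehicle wells; hits needed this value within 50% of zero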
# Numbers without * were called inactive; i = inactive; x = not tested or not shown.
compound	PABP FP inh	CSC inhib	eIF4H inh	UUG fidelity	Env fusion inh	MT1-MMP act inh	MT1-MMP act inh RFP	Rce1 inhib
Cc1cc(-c2cccs2)c2c(N)c(C(=O)c3ccc4c(c3)OCO4)sc2n1	-6	-8	-11	x	x	-156	-5	i
O=C(CSc1nnc(CCCN2C(=O)c3cccc4cccc(c34)C2=O)n1-c1ccccc1)N1CCN(CCO)CC1	-3	x	14	-11	-60	-4	3	i
COC(=O)c1sc(NC(=S)NC(=O)c2ccc(C)cc2)nc1C	3	-4	8	-4	-16	1	2	i
CCO[C@H]1OC(C(=O)O)=C[C@@H](C2CCCCC2)[C@@H]1CCCO	-4	-7	-7	-2	-43	3	3	i
C#Cc1ccc([C@H]2C=C(C(=O)NCc3nc4ccccc4[nH]3)O[C@@H](OCc3ccc(CO)cc3)C2)cc1	x	-9	x	-16	-10	-6	-4	i
COc1ccc(F)cc1S(=O)(=O)NCc1ccccc1	26	12	-2	x	x	5	4	i
CCOc1ccccc1C(=O)NC1CCN(CC(=O)Nc2cc(OC)ccc2OC)CC1	-3	-17	12	-3	1	5	-7	i
O=C(O)C1CC=CCC1C(=O)NCc1ccc(Cl)c(Cl)c1 (stereo unspecified)	x	-7	x	-20	-9	3	-2	x
S=C1NC2(CCCCC2)NN1c1ccccc1	-2	-9	1	-8	0	-3	-1	i
O=C(CNC(=O)c1ccco1)NCC(=O)OCc1ccc(C(=O)Oc2ccc(Cl)cc2)cc1	0	-8	8	x	-15	-4	2	i
COC(=O)c1cc(OC)c(OC)cc1NC(=O)Nc1ccc(OC)cc1	-10	10	4	x	x	-2	1	i
Cc1ccnc(N2CCCC(C(=O)NC3CC3)C2)n1 (stereo unspecified)	6	0	-3	-18	11	5	6	i
CCN1CCN(c2nc(NCCO)c3ccccc3n2)CC1	12	-13	7	1	-7	1	2	i
COc1ccc(-n2ccnc2SCC(=O)NC2CCCC2)c(OC)c1	-3	-17	-1	-18	0	-1	1	i
COc1ccc(NC(=O)Nc2cccnc2)c(OC)c1	-10	7	19	x	-8	3	4	i
Cc1cc([N+](=O)[O-])nn1CC(=O)Nc1ccc(Cc2ccncc2)cc1	-4	-5	-12	x	29	6	3	i
C=CCc1cc(Cl)ccc1OCCNCCCOC	-7	27	-2	-3	-19	-1	4	i
CCNC(=S)N1CCN(CCN2C(=O)c3cccc4cccc(c34)C2=O)CC1	-8	-1	8	1	-31	-3	0	i
CN(C)CCCNc1ncnc2c1c(-c1ccccc1)cn2-c1ccccc1	-11	15	-16	4	6	-12	-2	i
CCOc1ccccc1Nc1cc(C)c2cccc(C)c2n1	5	30	-4	2	-5	1	-2	i
O=C(COC(=O)c1cccc(Cl)c1Cl)NC1CCCC1	6	-4	-3	-11	6	-1	0	i
COc1ccc(N(Cc2cc3ccccc3[nH]c2=O)S(=O)(=O)c2ccc(OC)cc2)cc1	10	47	-3	-21	-20	-11	-12	i
COc1ccccc1N1CCN(C(=O)C(=O)N/N=C/c2cccc(O)c2)CC1	-11	3	-11	-3	8	2	0	i
CCC(=O)N1c2ccccc2NC2=C(C(=O)CC(c3ccco3)C2)C1c1ccco1 (stereo unspecified)	22	-9	3	3	x	0	-1	i
Cc1sc2nc(CSc3ccccc3)nc(NCCN(C)C)c2c1C	2	7	-13	x	18	-3	-6	i
O=C(Cn1c(NCCO)nc2ccccc21)NCC1CCCO1 (stereo unspecified)	13	2	-7	-5	18	0	5	i
CCn1ncc(CN2CCC(Oc3cc(C(=O)NC4CC4)ccc3OC)CC2)c1C	5	-4	-4	1	16	-4	1	i
NC(=S)Nn1c(-c2ccccc2)nc2ccccc2c1=O	0	-14	5	-3	x	6	1	i
O=C(CSc1nnc(-c2ccc(F)cc2)n1CC1CCCO1)NCc1ccco1 (stereo unspecified)	49	-10	22	-12	40	0	1	i
CC1CCCN(C(=O)CN2CCN(C(=O)c3ccco3)CC2)C1 (stereo unspecified)	11	13	-2	-6	3	-7	3	i
O=C(c1ccccc1N(Cc1ccccc1)S(=O)(=O)c1ccccc1)N1CCOCC1	8	x	10	3	43	-7	3	i
CCOC(=O)C1CCN(c2c(NCc3ccc(C(=O)NCCOC)cc3)c(=O)c2=O)CC1	-4	9	-4	-12	x	-3	-3	i
CCOC(=O)c1ccc(NC(=O)CC2SC(=NC)N(C)C2=O)cc1 (stereo unspecified)	-3	-15	-10	8	x	5	2	x
O=C(CSc1nnc(-c2ccc(Cl)cc2)n1Cc1ccco1)NCc1ccc2c(c1)OCO2	6	-2	3	-6	x	1	0	i
CC(=O)Nc1cc(OC(C)=O)c2nonc2c1OC(C)=O	-8	106*	-1	-7	x	-3	-2	x
N#C/C(=C\Nc1ccc2c(c1)OCCO2)C(=O)NCc1ccco1	-6	-7	-1	102*	6	-1	1	i
COc1cccc(NC(=O)CN(C)C(=O)COc2ccc3ccccc3c2)c1	-6	-5	-3	x	-7	3	6	i
CCN1CCN(c2nc3ccccn3c(=O)c2/C=C(\C#N)S(=O)(=O)c2ccccc2)CC1	8	-6	5	-7	-16	-4	3	i
O=C(OCC(=O)N1CCOCC1)c1ccc(O)cc1	-3	-8	8	-15	-15	1	1	i
CC(=O)Nc1cccc(NC(=O)c2sc3ncn(CC(=O)N4CCCCC4)c(=O)c3c2C)c1	6	x	15	-2	x	2	1	x
CCOc1nc(-c2ccc(C)cc2)ccc1-c1noc(-c2cccnc2)n1	6	x	-4	x	x	x	x	i
CN1CCN(C(=S)c2cn(CCOc3ccccc3)c3ccccc23)CC1	-4	-8	11	x	10	-1	1	i
NNC(=O)c1ccc(Cl)cc1Cl	1	1	-4	x	-6	-3	-1	x
COc1ccc(/C=C2\N=C3CCCN3C2=O)cc1	4	4	-9	-22	-10	3	3	i
Cc1nc(SCC(N)=O)[nH]c(=O)c1Cc1ccc(OC(C)C)cc1	-1	-2	-1	7	x	9	3	i
Cc1ccc(C(=O)NC(=S)Nc2ccc(N3CCOCC3)cc2)cc1	0	8	-3	-21	11	-13	-5	i
Cc1cc(C)c(C)c(S(=O)(=O)N2CCC(C(=O)NC3=NCCS3)CC2)c1C	x	x	x	-14	-26	1	-2	x
Cc1cc(C)c(S(C)(=O)=O)c(NN)n1	-3	-2	-13	x	-5	0	5	i
NC(=S)c1c(Cl)cc(C(F)(F)F)cc1Cl	5	-6	1	-29	-7	0	2	i
O=C(Cn1cnc2ccccc21)N/N=C/c1ccc([N+](=O)[O-])cc1	-19	-12	0	x	20	3	5	x
Cn1nc(C(F)(F)F)c(-c2ccc(F)cc2)c1NC(=O)CSCC(=O)O	-3	6	-11	x	-3	3	1	i
COc1ccc(-n2nc(C(=O)NCC(=O)NC3CCCCCC3)c3ccccc3c2=O)c(OC)c1	0	-19	2	-3	-5	-2	1	i
CCOC(=O)C1CCC(=O)C1 (stereo unspecified)	x	x	x	-3	6	7	-3	x
O=[N+]([O-])c1cc2c(c([N+](=O)[O-])c1)Nc1ccccc1O2	x	x	x	-15	25	-6	-14	x
Cc1cc(C)n2c(SCC(=O)Nc3ccc(F)cc3)nnc2n1	4	-11	-3	-17	2	3	1	x
O=C(c1ccc2ccccc2c1)N1CCOCC1	x	-8	x	-17	-12	3	2	i
Cc1ccccc1CC1SC(N)=NC1=O (stereo unspecified)	-5	-9	-8	-3	-12	-6	3	i
COc1ccc(CCC(=O)OCC(=O)NCc2ccccc2)cc1	x	-7	x	6	-1	1	1	x
CCN(CC)S(=O)(=O)c1cc(C(=O)Nc2cc(Cl)ccc2N2CCN(C)CC2)ccc1Cl	-2	39	8	21	-21	-2	-4	i
CSC(=S)N/N=C/c1ccc(Br)cc1	8	-10	3	x	-89	4	6	i

# Further structures
compound	PABP FP inh	CSC inhib	eIF4H inh	UUG fidelity	Env fusion inh	MT1-MMP act inh	MT1-MMP act inh RFP	Rce1 inhib
CC(=O)c1ccc(N2CCN(C(=O)CCCn3c(=O)[nH]c4ccsc4c3=O)CC2)cc1	4	-16	-4	-13	-3	-4	-2	i
CCc1ccc(Nc2cnn(C34CC5CC(CC(CC(=O)O)(C5)C3)C4)c(=O)c2Cl)cc1	-2	1	3	5	10	0	2	i
O=C(NC1CCCCC1)C(c1ccc(F)cc1)N(CCCN1CCOCC1)C(=O)c1ccc(CN2CCOCC2)o1 (stereo unspecified)	-4	-19	-4	-10	14	2	2	i
N#CC1=C(N)N(c2ccccc2Sc2ccccc2)C(=O)C1	12	x	1	-23	x	-1	7	i
Cc1cc(C(=O)CSc2nnc(-c3ccccc3)n2Cc2ccc3c(c2)OCO3)c(C)n1C	7	-8	5	1	-32	3	0	x
COc1ccc(S(=O)(=O)N2CCOCC2)cc1NC(=O)CN1CCN(C)CC1	x	-2	x	x	-6	-1	-1	i
COc1ccc(N(CC(=O)N/N=C/c2ccc(OC)cc2OC)S(=O)(=O)c2ccccc2)cc1	5	-18	-5	-10	8	2	1	i
CC(C)CC1NC(=O)c2cc3ccccc3cc2-n2c1nc1cc(Cl)ccc1c2=O (stereo unspecified)	x	x	x	-6	11	-9	-28	x
O=C(CCC(=O)Nc1ccc(Cl)cc1Cl)NNC(=O)[C@@H]1CCCC[C@@H]1C(=O)O	-2	-15	4	-15	-8	-5	0	x
Cc1ccccc1NC(=O)COC(=O)CNC(=O)c1sc2ccccc2c1Cl	-1	-15	-8	x	x	-9	-3	i
NC(=O)c1ccsc1NC(=O)COC(=O)c1ccccn1	x	-25	x	-15	x	-3	5	x
CN(C)CCN1C(=O)c2ccccc2C1=O	x	-11	x	-7	-13	-2	2	x
O=C(CN(CC1CCCO1)C(=O)CNS(=O)(=O)c1ccc(F)cc1)NC1CCCCC1 (stereo unspecified)	4	4	-2	0	4	-1	0	i
O=Cc1cccc(Oc2ncccn2)c1	-9	-4	8	9	4	-2	0	i
Cc1cc(C)c(OCC(O)CN2CCN(c3ccccn3)CC2)c(C)c1 (stereo unspecified)	7	5	-4	-8	12	5	6	i
COc1ccc(-n2nc(C(=O)NCC(=O)N3CCN(c4ccccn4)CC3)c3ccccc3c2=O)cc1	9	-4	-3	0	-48	3	9	i
O=C(c1ccc(S(=O)(=O)Nc2ccccc2F)cc1)N1CCCC1	x	x	x	-4	-106	-3	-1	x
CCOC(=O)N1CCC(N2CCCC(C(=O)c3cc(F)ccc3OC)C2)CC1 (stereo unspecified)	-13	5	-6	x	1	4	4	i
Cc1cccc(C2(c3cccc(C)c3)CC2C(=O)Nc2ccc([N+](=O)[O-])cc2O)c1 (stereo unspecified)	18	x	-5	x	75*	-14	-37	i
CC1CCN(CCC(=O)N2CCCc3c2c(=O)oc2ccc(O)cc32)CC1	-1	8	3	21	-9	12	2	i
Cc1noc(C(=O)Nc2cccnc2)c1Cl	-1	-6	0	-7	-8	-2	2	i
COc1ccc(S(=O)(=O)Nc2ccccc2C(=O)N2CCOCC2)cc1Br	-10	x	-13	-1	-4	0	3	i
Cn1c(=O)c2sccc2n(Cc2ccc(Br)cc2)c1=O	-1	-11	-11	-6	18	-8	-27	i
COc1cccc(NC(=O)c2ccc(OC(F)(F)F)cc2)c1	x	16	x	-8	-216	2	-4	i
NC(Cc1c[nH]c2ccccc12)C(=O)NCc1ccccc1 (stereo unspecified)	5	-6	-13	-13	13	3	1	i

# Screening results as filed in PubChem BioAssay.

# Rows were taken by chance; any-hit rate near 2.9%.
